Screens: PubChem, several laboratories
WNV NS2B-NS3 inh: inhibitors of West Nile virus NS2B-NS3 protease. actives 0.18% (n = 65,000). z-score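 (tested at a level between 10 and 100 µM)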. WNV NS2B-NS3 protease, fluorogenic substrate Ex360/Em465; stronger effect = lower value. P06935. AID 577;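 active = z-score at -3 or under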;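 note: score is relative to mean and spread of the compound wells of a plate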
Target sequence (P06935 1371-1501 limits assumed): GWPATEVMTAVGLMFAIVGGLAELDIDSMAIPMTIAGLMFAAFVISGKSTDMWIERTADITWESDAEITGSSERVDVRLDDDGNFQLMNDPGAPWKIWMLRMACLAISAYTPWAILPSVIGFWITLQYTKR
Target sequence (P06935 1502-1679 limits assumed): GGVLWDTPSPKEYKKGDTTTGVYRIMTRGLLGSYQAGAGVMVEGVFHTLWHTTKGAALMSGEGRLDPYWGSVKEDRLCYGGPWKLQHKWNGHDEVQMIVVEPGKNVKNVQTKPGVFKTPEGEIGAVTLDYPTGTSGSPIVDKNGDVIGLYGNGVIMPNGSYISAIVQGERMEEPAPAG
Hsc70: small molecules displacing fluorescent ligand from Hsc70 – biochemical, fluorescence polarization, primary screen (AID 568) | Hsc70 fluorescence polarization, probe displacement; higher % means a stronger effect; strong numbers were not always called active | one-dose displacement, % at 20 µM; IC50 in µM for titrated hits | 83,000 tested, under 10 active;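 active = displacement above 50% without optical interference and an IC50 on retest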;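 note: ATPase domain with a fluorescein-tagged ATP probe; 0% = vehicle and 100% = excess ADP; read after one hour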
MT1-MMP reporter: MT1-MMP gene expression reporter suppression – cell-based, luciferase reporter, luminescence (AID 618) | MT1-MMP promoter luciferase reporter cells, luminescence | calls from a first round at 10 µM; hits with a dose series show EC50 in µM | actives 0.62% (n = 87,000);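 active = over half of the reporter light lost at 10 µM or EC50 under 50 µM; inactive = the rest and hits that failed the dose series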;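 note: actives suppress MT1-MMP promoter-driven transcription so potencies describe inhibitors; HT1080 fibrosarcoma cells; overnight exposure; toxic or luciferase-blocking compounds were not removed from the actives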
* = called active by the depositor; i = inactive; nt = no result given; + = active, no number.

SMILES	WNV NS2B-NS3 inh	Hsc70	MT1-MMP reporter
COc1cccc(CNc2ccc(F)c(Cl)c2)c1	nt	-1.8%	i
C=C(C)COc1ccc2c3c(c(=O)oc2c1OCC(=C)C)CCC3	-0.81	2.2%	i
C=CCn1c(=N)n(CC(=O)OCC)c2ccccc21	0.21	4.0%	i
COc1cc(C(=O)N[C@H](C(=O)NC(C)C23CC4CC(CC(C4)C2)C3)C(C)C)cc(OC)c1OC (stereo partly specified)	nt	1.7%	i
CCC(=O)Nc1sc2c(c1C(N)=O)CCC2	0.03	0.4%	i
COc1ccc(C2=NOC(C(=O)NCc3ccccn3)C2)cc1 (stereo unspecified)	nt	-2.2%	i
COc1ccccc1C(=O)N1CCNC(=O)C1CC(=O)Nc1cccc(C)c1 (stereo unspecified)	nt	1.2%	i
CCOc1ccc(-c2cc(C(=O)N3CCN(c4ccccn4)CC3)c3ccccc3n2)cc1	0.44	-2.0%	i
CN1CC(c2ccccc2)C2(SC(=S)N(Cc3ccco3)C2=O)C12C(=O)Nc1ccccc12 (stereo unspecified)	nt	-0.3%	i
Cc1ccc(-c2nnc(N3CCN(c4ccccn4)CC3)c3ccccc23)cc1	0.43	7.4%	i
CCc1ccc(C2C(C(C)=O)=C(C(=O)OC)Nc3nnnn32)cc1 (stereo unspecified)	-1.2	8.5%	i
CCn1nc(NC(=O)c2ccco2)c2cc3ccc(C)cc3nc21	1.6	-11%	i
CCNc1nc(SCc2ccccc2)nc(N2CCOCC2)n1	1.6	1.1%	i
Cc1cnnc2c1-c1no[n+]([O-])c1CC2	0.59	-0.3%	i
O=C(CSc1c2c(nc3cc(Cl)ccc13)CCCC2)NCc1ccco1	nt	-13%	i
Cc1cc(C)c2nc(N3CCCC3)c(C#N)cc2c1	0.66	-4.6%	i
COC(=O)c1cc(OC)c(OC)cc1NC(=O)Nc1ccccc1OC	-0.76	1.0%	i
CS(=O)(=O)N1CCN(c2ccc(NC(=O)c3ccc(Br)o3)cc2)CC1	2.1	0.3%	i
Nn1cnn(Cc2ccccc2)c1=S	-1.1	-2.6%	i
Cc1ccc(O)c(C(=O)c2cnc3c(c2)COc2ccccc2-3)c1	nt	-1.7%	i
CCOC(=O)c1c(C)[nH]c(N=Nc2cccc(C)c2)c1C	nt	-4.0%	i
COc1ccc(-n2c(Cc3cccn3C)nnc2SCC(=O)Nc2ccc(C)cc2)cc1	-0.48	2.9%	i
N#Cc1ccc(NC(=O)c2sc3cc(C(F)(F)F)cnc3c2-c2cccs2)cc1	nt	0.7%	i
Cc1cc(Nc2cc(C(=O)O)ccc2C)n2ncnc2n1	0.2	0.4%	i
CN(C)CCN1C(=O)C(=O)/C(=C(/O)c2ccc(OCc3ccccc3)cc2)C1c1ccncc1 (stereo unspecified)	0.8	-6.4%	i
COc1ccc(C(=O)NC(C)c2nc3ccccc3n2C)cc1OC (stereo unspecified)	1.4	-5.9%	i
CCC(C)NC(=O)C1CCCN(C(=O)NC2CCCCC2)C1 (stereo unspecified)	nt	2.7%	i
Cn1c(=O)oc2cc(S(=O)(=O)NCc3ccccc3)ccc21	nt	1.8%	i
O=C(O)CCCC(=O)Nc1nc(-c2ccc(F)cc2)cs1	-0.28	5.7%	i
CCc1nnc(NC(=O)C(C)Sc2ccccc2)s1 (stereo unspecified)	-1	2.4%	i
COC(=O)c1cccc(NC(=O)Cn2nnc3ccccc32)c1	-0.98	2.1%	i
CSc1ncc2c(n1)-c1cc(C)ccc1SC2	nt	0.2%	i
Cc1ccc(S(=O)(=O)C(C#N)c2nc3ccccc3nc2N2CCC(C)CC2)cc1 (stereo unspecified)	-0.27	0.8%	i
c1ccc(Cn2c(CN3CCCC3)nc3ccccc32)cc1	nt	6.4%	i
Cc1cc(-n2c(SCCC#N)nnc2-c2cccnc2)ccc1Cl	-1.2	-4.6%	i
C=CCn1c(SCc2cc(=O)n3ccsc3n2)nnc1C1CCCCC1	-0.08	-1.1%	i
Cc1cc(C)n(-c2nc3ccccc3c(=O)n2OCCOc2ccccc2)n1	0.12	-3.7%	i
O=c1oc2c(CN3CCCCCC3)c(O)ccc2cc1-c1nc2ccccc2[nH]1	2.7	129%	i
COc1cc(CNC(=O)OCC(C)C)cc(OC)c1OC	-1.2	5.1%	i
CS(=O)(=O)N1CCCC(C(=O)NCCc2ccccc2)C1 (stereo unspecified)	1.9	1.3%	i

The final four entries of the section above lead into the next.
SMILES	WNV NS2B-NS3 inh	Hsc70	MT1-MMP reporter
Cc1cc(C)n(-c2nc3ccccc3c(=O)n2OCCOc2ccccc2)n1	0.12	-3.7%	i
O=c1oc2c(CN3CCCCCC3)c(O)ccc2cc1-c1nc2ccccc2[nH]1	2.7	129%	i
COc1cc(CNC(=O)OCC(C)C)cc(OC)c1OC	-1.2	5.1%	i
CS(=O)(=O)N1CCCC(C(=O)NCCc2ccccc2)C1 (stereo unspecified)	1.9	1.3%	i
CN(C)S(=O)(=O)N1CCN(C(=O)N(c2ccccc2)c2ccccc2)CC1	0.87	-2.0%	i
COc1ccc2c(c1)CCc1c(C(=O)N3CCCC3)noc1-2	1.3	-3.9%	i
Cc1ccc(Oc2nsnc2N2CCOCC2)cc1	-0.27	-0.8%	i
COCc1c(C(N)=O)nnn1-c1nonc1N	-0.71	-2.1%	i
CCn1c(SCC(=O)Nc2ccccc2-c2ccccc2)nnc1-c1ccoc1C	-0.2	2.1%	i
O=C(Nc1ncnc2sc3c(c12)CCCCC3)c1ccc(F)cc1	nt	9.0%	i
CCNC(=O)COC(=O)c1ccc(S(=O)(=O)N2CCCCCC2)cc1	-1.3	-5.0%	i
C[N+]12CCCCC1C(COC(=O)c1ccc3c(c1)OCO3)CCC2 (stereo unspecified)	nt	-0.6%	i
O=c1c(Oc2ccccc2Br)c(C(F)(F)F)oc2c(CN3CCCC3)c(O)ccc12	nt	7.0%	i
CCOC(=O)C1=NN(c2ccc(C)cc2)C2(S1)SC(C(C)=O)=C(C)N2c1ccccc1 (stereo unspecified)	nt	2.2%	i
COCCN1Cc2cccc(C(=O)N3CCN(c4cc(C)ccc4C)CC3)c2C1=O	1.1	6.0%	i
O=C(O)C1CSC2(CCN(Cc3ccccc3)CC2)N1 (stereo unspecified)	0.52	-5.7%	i
CCOc1cc(S(=O)(=O)NCC2OCCc3ccccc32)c(OCC)cc1-n1cnnn1 (stereo unspecified)	1.2	-11%	i
O=C(Nc1ccc2nc(-c3cccs3)[nH]c2c1)c1ccco1	-0.71	1.3%	i
CCOCCn1c(CN2CCN(CC)CC2)nc2c1c(=O)n(C)c(=O)n2C	-0.11	2.9%	i
O=C(Nc1ccc2c(c1)CCC2)C1CCN(c2c3c(nc4ncnn24)CCC3)CC1	-0.42	-1.7%	i
COc1cccc(-c2nc(CS(=O)(=O)CC(=O)N3CCN(C4CCCCC4)CC3)c(C)o2)c1	-0.44	-1.0%	i
CC(C)(C)c1cc(C(=O)O)c(CN2CCCCC2)o1	-1.1	-2.7%	i
O=[n+]1c2c(n([O-])c3c1CCCC3)CCCC2	-0.29	1.7%	i
O=C(CSCc1ccccc1)N1CCN(C(=O)c2ccco2)CC1	-1.6	3.6%	i

2 compounds picked at random from those above, as already listed:
SMILES	WNV NS2B-NS3 inh	Hsc70	MT1-MMP reporter
O=C(Nc1ncnc2sc3c(c12)CCCCC3)c1ccc(F)cc1	nt	9.0%	i
CCn1nc(NC(=O)c2ccco2)c2cc3ccc(C)cc3nc21	1.6	-11%	i

Remaining list, next part.
SMILES	WNV NS2B-NS3 inh	Hsc70	MT1-MMP reporter
CN(Cc1ccccc1)c1nc2c(c(=O)[nH]c(=O)n2C)n1CCSc1ncccn1	nt	1.3%	i
COc1ccc(-n2nnnc2-c2cccc(OC)c2)cc1	-0.99	-2.8%	i
CC(C)n1nnnc1SCC(=O)NCc1ccc2c(c1)OCO2	nt	1.7%	i
CSc1cccc(NS(=O)(=O)c2ccc3c(c2)oc(=O)n3C)c1	-0.33	-1.8%	i
CN(C)c1ccc(-c2noc(-c3ccccc3O)n2)cc1	-0.7	-6.4%	+
O=C(Oc1ccccc1C(=O)N1CCOCC1)c1cccc(Br)c1	0.84	-3.8%	i
CC1CCCN(c2oc(-c3cccc4ccccc34)nc2C#N)C1 (stereo unspecified)	0.41	-2.9%	i
CC(=O)C1=C(C)NC(SCC(=O)c2ccc(Cl)cc2)=C(C#N)C1CC(C)C (stereo unspecified)	nt	3.6%	i
CCN1CCN(CCCNC(=O)c2cc3cc4ccc(OC)cc4nc3o2)CC1	2.4	-6.0%	i
CC1(C)N=C(c2ccccn2)C(C)(C)N1O	nt	0.7%	i
CC(Sc1n[nH]c(=O)[nH]c1=O)C(=O)OCc1ccccc1 (stereo unspecified)	0.02	-5.6%	i
COCCCNC(=O)c1c(NC(=O)C2COc3ccccc3O2)sc2c1CCCC2 (stereo unspecified)	nt	-0.4%	i
Cc1ccc(S(=O)(=O)NCc2csc(C)n2)c(C)c1	0.03	-8.1%	i
COc1cc(-c2nn3c(-c4ccccc4)nnc3s2)cc(OC)c1OC	-0.26	-2.2%	i
CC(C)OC(=O)CSc1nnc(-c2cccnc2)n1N	1.3	-1.7%	i
Cc1ccc(NS(=O)(=O)c2cc(C(=O)O)ccc2Cl)c(C)c1	0.12	1.0%	i
CC(C)Cc1cc(C(=O)Nc2c(F)cc(F)cc2Br)no1	0.32	3.0%	i
C=CCOC(=O)c1sc(N2C(=O)c3oc4ccccc4c(=O)c3C2c2ccco2)nc1C (stereo unspecified)	-0.2	0.1%	i
CCOc1ccc(S(=O)(=O)Nc2cccc(Cl)c2)cc1	-0.56	2.9%	i
Cc1cc(NC(=O)CCC(=O)N(Cc2cccs2)C(C(=O)NC2CCCC2)c2cccnc2)no1 (stereo unspecified)	nt	-2.1%	i
Cc1ccccc1Cn1c(=O)[nH]c2ccccc21	-1.2	-2.3%	i
CCCCCCn1c(CN2CCCCC2C)nc2c1c(=O)n(C)c(=O)n2C (stereo unspecified)	0.12	4.7%	i
CCCCOC(=O)CCc1c(C)[nH]c(=O)c(C#N)c1C	-1.4	0.3%	i
c1ccc(-c2nn3c(Cn4cnc5ccccc54)nnc3s2)cc1	0.18	2.5%	i
CC(C)OC(=O)C1C2C=CC3(CN(C(C)c4ccc(Br)cc4)C(=O)C13)O2 (stereo unspecified)	1.2	-6.0%	i
COc1ccc(C2CC(=O)C3=C(C2)Nc2ccccc2N(C(=O)C2CC2)C3c2cccnc2)cc1OC (stereo unspecified)	0.75	-4.2%	i
CCCCC(=O)O[C@H]1CC[C@H]2[C@@H]3CCc4cc(O)ccc4[C@H]3CC[C@]12C	0.43	3.0%	i
CN(C)S(=O)(=O)c1cccn1-c1ncc(C(F)(F)F)cc1Cl	nt	1.6%	i
C=CCn1c(N)c(C(=O)OC(C)CC)c2nc3ccccc3nc21 (stereo unspecified)	2.4	3.1%	i
CCOc1ccc(-n2c(Cc3cc(=O)[nH]c(=O)[nH]3)nnc2SCC(=O)OC)cc1	-0.71	-4.3%	i
CC(C)(C)Nc1ncnc2c1cnn2-c1ccccc1	0.11	4.3%	i
C[C@]12CC[C@@H]3c4ccc(O)cc4CC[C@H]3[C@@H]1CC[C@@H]2OC(=O)CCC(=O)O	0.4	-3.8%	i
C=CCn1c(SCC(=O)OC)nc2sc3c(c2c1=O)CCN(C)C3	-7.4*	15%	i
O=C(O)C(F)(F)S(=O)(=O)O	1.2	5.4%	i
Cc1cccc(NC(=O)C2CCN(S(=O)(=O)c3cccc4nsnc34)CC2)c1	nt	1.5%	i
Cc1noc(C)c1COC(=O)c1cccnc1SCC(=O)Nc1ccc2c(c1)OCO2	1	1.3%	i
COc1ccc(NC(=O)c2oc3cc(C)c(C)cc3c2C)c(OC)c1	-0.44	-4.7%	i
CC(C)CCn1nnnc1C(c1ccc(F)cc1)N1CCN(C(=O)c2ccco2)CC1 (stereo unspecified)	-0.88	-0.2%	i
CN(C)C(=O)CSc1nnc(CCNC(=O)OC(C)(C)C)o1	-1.1	-0.1%	i
COc1ccccc1-c1nnc(SCCN2CCOCC2)n1-c1ccc(C)cc1	-0.43	3.3%	i
CSc1nc2sc3c(c2c2nnnn12)CCCC3	2.4	-8.3%	i
COc1cccc(C2=CC(c3cc(OC)ccc3OC)n3nnnc3N2)c1 (stereo unspecified)	-1.2	1.6%	i
Nc1cc(C(=O)c2ccccc2)ccc1N1CCOCC1	nt	5.2%	i
Cc1ccccc1NC(=O)c1ccccc1	-0.01	5.0%	i
CCc1c(C)nc2ncnn2c1N1CCCC(C(=O)NCCc2ccccc2)C1 (stereo unspecified)	1.5	6.4%	i
CCOC(=O)C1CCCN(C(=O)c2cc3c(=O)n4cccc(C)c4nc3n2C)C1 (stereo unspecified)	-0.39	2.8%	i

In a second layout: entries from further up.
Structure | WNV NS2B-NS3 inh | Hsc70 | MT1-MMP reporter
Nc1cc(C(=O)c2ccccc2)ccc1N1CCOCC1 | nt | 5.2% | i
Cc1ccccc1NC(=O)c1ccccc1 | -0.01 | 5.0% | i
CCc1c(C)nc2ncnn2c1N1CCCC(C(=O)NCCc2ccccc2)C1 (stereo unspecified) | 1.5 | 6.4% | i
CCOC(=O)C1CCCN(C(=O)c2cc3c(=O)n4cccc(C)c4nc3n2C)C1 (stereo unspecified) | -0.39 | 2.8% | i

The list is partial, so the mix of outcomes need not match the whole.
